# Screening results: PubChem BioAssay, ICCB-Longwood Screening Facility, Harvard Medical School
# GIV-Gai inh: blocks GIV peptide binding to rat Galpha-i3 | P08753 | Galpha-i3/FITC-GIV peptide fluorescence polarization, 90 min; stronger effect = lower value; scaled: aluminum fluoride 0%, vehicle 100% | percent of control (FP), % (test concentration not listed) | 0.42% of 210,000 active;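 active = replicate mean at 85% of control or lower, very high polarization wells dropped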;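 note: wells of about 15 µL received 100 nL stock; the first replicate is given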
# Target sequence (P08753 whole entry, looked up): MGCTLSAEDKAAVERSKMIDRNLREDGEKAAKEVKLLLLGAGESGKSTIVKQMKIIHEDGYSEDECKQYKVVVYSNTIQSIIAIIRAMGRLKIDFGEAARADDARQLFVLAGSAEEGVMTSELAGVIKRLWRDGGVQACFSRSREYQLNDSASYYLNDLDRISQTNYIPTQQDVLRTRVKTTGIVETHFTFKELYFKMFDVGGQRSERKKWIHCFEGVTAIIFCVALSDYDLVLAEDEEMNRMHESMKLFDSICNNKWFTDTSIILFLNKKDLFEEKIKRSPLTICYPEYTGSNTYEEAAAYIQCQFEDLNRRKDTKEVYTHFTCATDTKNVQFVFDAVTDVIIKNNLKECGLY
# HCMV UL50-53 inh: cytomegalovirus nuclear egress complex inhibition. 0.15% of 190,000 active. AID 1918969. HTRF UL50-UL53 interaction, normalized percent inhibition. inhibition, % (test concentration not listed);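 active = both replicates at 50% or more, plus weaker picks with an unusually low signal ratio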;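 note: stock transfer was 100 nL into about 20 µL; 0% = negative control wells and 100% = wells with untagged competitor protein; inactives centre near -12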
# Sa growth 42C: S. aureus growth inhibition; 0.53% of 170,000 active; relative growth, % (concentration not given with the values); S. aureus RN4220 growth, OD600, 20 h, 42 °C; stronger effect = lower value;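 active = growth at 42 °C up to 50% and 20 or more points under that at 30 °C, or under 10% at both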;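 note: 300 nL library stock went into each well; scaled to the means of positive and negative controls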
# Sa growth 42C second temp: second read-out of Sa growth 42C, no call of its own (marks repeat the call); relative growth, %; measured here: growth at 30 °C;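 optical density after 20 h as mean of two plates; 100% = untreated growth and lower means inhibition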
# Numbers without * were called inactive; · = no result given; & = joins results of further samples.
SMILES,GIV-Gai inh,HCMV UL50-53 inh,Sa growth 42C,Sa growth 42C second temp
COc1ccc(N2CCN(CCNC(=O)c3ccc(NC(=O)C4CCCO4)cc3)CC2)cc1 (stereo not given),100,·,106,87
CCn1c(SCc2nc3ccccc3c(=O)[nH]2)nc2ccccc2c1=O,104,-6,85,87
CCC1CN(C(=O)Nc2ccccc2C(F)(F)F)c2ccccc2S1 (stereo not given),107,·,113,101
O=c1cc(CSc2ccc(Cl)cc2)[nH]c2[nH]n(-c3ccccc3)c(=O)c12,102,·,85,89
COC(=O)c1cc(COC(=O)c2ccc3c(c2)S(=O)(=O)c2ccccc2C3=O)oc1C,·,-56,80,96
O=C(O)c1cc2c(cn1)[nH]c1ccccc12,116&115,-45&-47,34,23
Cc1ccc(NC(=O)/C=C/c2ccccc2Cl)cc1Cl,106,-30,99,98
COc1ccc(CNC(=O)Cn2ccc3ccccc3c2=O)cc1,102,·,110,92
CC[C@H]1OC(=O)[C@H](C)[C@@H](O[C@H]2C[C@@](C)(OC)[C@@H](O)[C@H](C)O2)[C@H](C)[C@@H](O[C@@H]2O[C@H](C)C[C@H](N(C)C)[C@H]2O)[C@](C)(O)C[C@@H](C)CN(C)[C@H](C)[C@@H](O)[C@]1(C)O,·,-48&-57,-0.9*,-0.7*
CSc1cccc(NC(=S)NCCN(C2CCCCC2)C2CCCC2)c1,102,·,100,81
Cc1coc(C)c1C(=O)CC1(O)C(=O)N(Cc2ccccc2)c2ccc(Br)cc21 (stereo not given),99,-9,·,·
COC(=O)c1c(SC)nc2ccccc2c1OCc1ccc(Br)cc1,104,-3,93,87
Ic1ccc(Nc2nc(NCCN3CCOCC3)nc(N3CCCC3)n2)cc1,103,-26,100,52
CC1=C(C(=O)Nc2cccc(C)n2)C(c2ccccc2C(F)(F)F)C2=C(CC(C)(C)CC2=O)N1 (stereo not given),104,-15,·,·
N#Cc1ccc(C(=O)Nc2ccc(Cl)c(-c3nc4cc(Cl)ccc4o3)c2)c(F)c1,116,3,101,85
COC(=O)c1c(C(F)(F)F)nc(C(F)F)c(C(=O)O)c1CC(C)C,102,-13,110,84
O=S1(=O)C=C(SCCN2CCCCC2)c2ccccc21,108,-16,96,87
O=C(COc1ccc(F)cc1)Nc1ccccc1C(=O)OCc1cc(=O)n2nc(C3CC3)sc2n1,106,·,117,93
COc1cccc(-c2csc(N3CCN(C(=S)NCc4ccco4)CC3)n2)c1,103,1,97,68
Cc1c(Cl)cccc1NC(=O)c1ccc2c(c1)CCN2S(=O)(=O)c1ccccc1,101,-18,97,89
CCOc1ccc(C2CC(=O)Nc3c2c(=O)[nH]c2ncnn32)cc1 (stereo not given),101,-23,106,91
CCS(=O)(=O)N1CCN=C1N1CCCCC1,103,-4,·,·
CC(C)n1cnc2nc(CSc3ccc(NC(=O)Nc4ccccc4)cc3)cc(=O)n21,107,-7,·,·
COCCNC(=O)c1ccccc1NC(=O)Nc1ccccc1,104,-8,98,93
CC1=CCC2(C(=O)OC(C)(C)OC2=O)C(c2ccccc2)C1 (stereo not given),103,-19,106,87
COc1ccc(OC)c(C2=NN(c3nc(C)cs3)C(c3ccc(Cl)cc3)C2)c1 (stereo not given),101,-33,·,·
COc1cc(Cl)c(NC(=O)c2cc(S(=O)(=O)N3CCOCC3)cn2C)c(OC)c1,102,·,93,84
O=C(Cc1nc2ccccc2[nH]1)C(F)(F)F,103,0,124,87
O=C(c1ccc(CSc2nc3ccncc3[nH]2)cc1)N1CCCCC1,108,4,105,97
CN1C2=C(C(=O)CCC2)C(c2cccc3ccccc23)C2=C1CCCC2=O,95,-16,90,94
C=C(C)CN=c1scc(-c2cccs2)n1/N=C/c1ccc(O)c(O)c1,·,-5,56,93
O=C(NCCC1=CCCCC1)c1cccnc1SCc1ccccc1Cl,98,·,96,85
CCOc1ccc2c(c1)cc(C(=O)Nc1cccnc1)n2C,100,3,·,·
CC1CN(C(=O)c2sc3ccccc3c2Cl)CC(C)O1 (stereo not given),·,-4,119,93
CCN(CC)C(=O)c1cc2c(s1)-c1c(C)cccc1OC2,105,·,99,87
CCOC(=O)c1sc(SCc2ccccc2)c2c1-c1sccc1N(C)S2(=O)=O,101,-8,112,88
CNC(=O)COC(=O)c1oc2ccccc2c1C,·,-41,101,94
O=C(N/N=C/c1cccs1)C1CCN(S(=O)(=O)c2cccs2)CC1,·,-34,82,90
O=C1CCc2cc(C3=CSC4=NCCCN34)ccc2N1,107,5,102,99
O=C1c2ccccc2C(=O)N1CN(C(=O)C(F)(F)F)c1ccc(Cl)cc1,107,·,109,88
Cc1ccc(-n2nc(C)cc2NC(=O)c2ccc(Cl)cc2)cc1,·,-46,110,70
CCCC(=O)N1CCc2cc(OC)c(OC)cc2C1COc1ccc(OC)cc1 (stereo not given),103,·,91,89
CCOC(=O)Cn1ncc2c(=O)oc3ccccc3c21,96,-28,103,88
COc1cc(Cl)c(C)cc1Nc1nnc(-n2nc(C)cc2C)c2ccccc12,111,·,110,99
CCOc1ccc(CCN2CNc3c(c(=O)n(C)c(=O)n3C)C2)cc1,101,-26,·,·
O=c1n(Cc2ccccc2)nc2n1-c1cc(Cl)ccc1OC2,104,-15,95,86
O=C(CC1CCCCC1)N1CCC2(CC1)Nc1ccc(Cl)cc1-n1cccc12,102,-29,·,·
O=c1cc(CN2CCN(Cc3ccccc3)CC2)nc2sccn12,110,2,96,103
C/C(=C\C(=O)O)C12CC3CC(CC(C3)C1)C2,·,-29,99,84
CCCOC(=O)CSc1ncnc2sc3c(c12)CCC(C)C3 (stereo not given),106,-6,107,88
CN(C)CCCNc1ncnc2ccccc12,·,-9,83,85
NC(=O)N/N=C/c1ccc(OC(F)F)cc1,·,-37,93,91
Cc1nc2ccn(Cc3ccco3)c(=O)c2cc1C(=O)Nc1ccc(F)cc1,96,·,79,90
CCc1cc(=O)oc2c(C)c3c(cc12)CN(CCc1ccccc1OC)CO3,111,-14,101,86
Cc1cccc(/N=c2\scc(-c3ccco3)n2-c2ccccc2)n1,109,-27,98,73
COc1ccc(N(CC(=O)N2CC3CC(C2)c2cccc(=O)n2C3)S(=O)(=O)c2c(C)noc2C)cc1 (stereo not given),104,-2,·,·
CC1CCC(NC(=O)c2ccc3c(=O)[nH][nH]c(=O)c3c2)CC1 (stereo not given),·,10,118,99
CC(C(=O)NCc1ccccn1)n1cccc1C(=O)c1ccccc1 (stereo not given),110,1,111,97
Cc1[nH]c2ccc(C(=O)Nc3ccc(F)cc3)cc2c1C,107,·,97,96
Cc1cccc(CC(=O)N2CC(=O)Nc3ccc(Br)cc3C2c2ccc(F)cc2)c1 (stereo not given),101,-20,87,95
# (further entries)
SMILES,GIV-Gai inh,HCMV UL50-53 inh,Sa growth 42C,Sa growth 42C second temp
COc1ccccc1C(=O)NC1(C(F)(F)F)C(=O)NC(C)=C1C#N (stereo not given),99,-8,79,87
O=C(COc1ccccc1)NCc1ccc2c(c1)CCN2C(=O)c1ccc(Cl)cc1,101,·,84,88
CCC1CCC(C(=O)NC(C(=O)NCc2cccs2)C(C)C)CC1 (stereo not given),103,-2,88,88
CC(C)n1nnnc1SCC(=O)NCc1ccco1,103,-5,105,92
CCOC(=O)c1c(C)noc1C,·,-4,96,93
Cn1cc(C(=O)N2CCCCC2)c(=O)c2cc(S(=O)(=O)N3CCCC3)ccc21,99,-26,80,92
Cc1nc(C2C(=O)c3ccc(O)c(O)c3OC2C(F)(F)F)cs1 (stereo not given),·,-52,52,26
N#CCSc1nnc(-c2ncc(C(F)(F)F)cc2Cl)n1-c1ccc(Cl)cc1,103,·,86,94
N#C/C(=C\c1ccccc1)C(=O)Nc1sc2c(c1C(N)=O)CCC2,109,-29,100,85
COc1ccccc1CNC(=O)CCC1N=C2c3ccccc3N=C(SCc3ccccc3Cl)N2C1=O (stereo not given),104,·,108,99
Cn1c2ccccc2c2cnn(CC(=O)Nc3ccccc3F)c(=O)c21,102,21,100,92
O=C(NCc1ccccc1F)C1CCn2c(nc3ccccc32)C1 (stereo not given),109,-25,·,·

# Part of the list above, bar-delimited.
smiles | GIV-Gai inh | HCMV UL50-53 inh | Sa growth 42C | Sa growth 42C second temp
N#C/C(=C\c1ccccc1)C(=O)Nc1sc2c(c1C(N)=O)CCC2 | 109 | -29 | 100 | 85
COc1ccccc1CNC(=O)CCC1N=C2c3ccccc3N=C(SCc3ccccc3Cl)N2C1=O (stereo not given) | 104 | · | 108 | 99

# The results go on.
SMILES,GIV-Gai inh,HCMV UL50-53 inh,Sa growth 42C,Sa growth 42C second temp
Cc1ccc(C(=O)O)cc1-c1ccc(/C=C2/NC(=O)N(c3ccccc3)C2=O)o1,109,-107,71,24
COc1ccc(C)cc1NC(=O)CN1C(=O)COc2ccc(S(=O)(=O)N3CCCCCC3)cc21,101,·,121,91
CCCOc1ccc(CNC(=O)C2CCN(C(=O)c3sccc3-n3cccc3)CC2)cc1,100,-29,103,84
CCOc1ccc(CCNC(=O)c2ccc(C)c(-n3c(C)nc4cccnc43)c2)cc1OCC,106,·,114,93
Oc1c(CN2CCOCC2)ccc2ccccc12,·,-20,107,74
Cc1ccc(C(=O)CSc2nc3cc(C(=O)NC4CCCC4)ccc3c(=O)n2CC2CCCO2)c(C)c1 (stereo not given),101&98,-10,80,79
CCOC(=O)c1c[nH]c2c(OC)cc(OC)cc2c1=O,99,2,·,·
O=C(Nc1ccccc1C(=O)O)c1ccccc1F,103,21,109,85
Cc1ccc2cnn(CC(=O)N3CC(C)CC(C)C3)c2c1 (stereo not given),106,·,94,95
Oc1ccc(Cl)cc1C=Nc1ccc2oc(Cc3ccc(Cl)cc3)nc2c1,100,·,113,93
COc1ccc(CNC(=O)CCCN2CCSc3ccccc32)c(OC)c1,110,0,·,·
Cc1cc(Cl)ccc1OCC(=O)N(Cc1ccco1)Cc1ccco1,98,-42,80,79
CC(=O)n1cc(/C=C2\N=C(c3ccc(Cl)cc3)OC2=O)c2cc(Br)ccc21,103,-12,·,·
O=C(Nc1ccc(F)cc1)c1nnc(C(=O)N2CCC(C(=O)NCc3ccccn3)CC2)s1,105,15,·,·
CNc1nc(SCc2c(C)noc2C)nc2ccccc12,·,51*,101,107
Cc1cc(C)cc(OCc2cc(=O)n3cc(C)sc3n2)c1,102,-16,100,88
C=CCn1c(SCC(=O)NCCc2ccccc2)nc2sc3c(c2c1=O)CCC3,101&97,-10&-22,·,·
CCSc1nn(CC(=O)Nc2ccc3c(c2)OCCO3)c(N)c1S(=O)(=O)c1ccc(C)cc1,102,-19,·,·
Cc1ccc(-c2nc3nc(CN4CCCC4)cc(=O)n3[nH]2)cc1C,108,-12,·,·
COc1cccc(-n2c(=O)c3sc4ccccc4c3n(CC(=O)NC3CCCCC3)c2=O)c1,100,10,104,98
O=C(CSc1nnc(-c2ccncc2)n1-c1ccccc1)Nc1ccc(Cl)c(Cl)c1,99,·,119,80
Cc1nc2ccccc2c(=O)n1C,100,-15,92,89
O=S(=O)(c1ccc(NC(=S)NCc2ccco2)cc1)N1CCCc2ccccc21,105,1,91,93

# Structural class: the compounds so far containing an aryl methoxy group (15)
SMILES,GIV-Gai inh,HCMV UL50-53 inh,Sa growth 42C,Sa growth 42C second temp
COc1ccc(N2CCN(CCNC(=O)c3ccc(NC(=O)C4CCCO4)cc3)CC2)cc1 (stereo not given),100,·,106,87
COc1ccc(CNC(=O)Cn2ccc3ccccc3c2=O)cc1,102,·,110,92
COc1cccc(-c2csc(N3CCN(C(=S)NCc4ccco4)CC3)n2)c1,103,1,97,68
COc1ccc(OC)c(C2=NN(c3nc(C)cs3)C(c3ccc(Cl)cc3)C2)c1 (stereo not given),101,-33,·,·
COc1cc(Cl)c(NC(=O)c2cc(S(=O)(=O)N3CCOCC3)cn2C)c(OC)c1,102,·,93,84
CCCC(=O)N1CCc2cc(OC)c(OC)cc2C1COc1ccc(OC)cc1 (stereo not given),103,·,91,89
COc1cc(Cl)c(C)cc1Nc1nnc(-n2nc(C)cc2C)c2ccccc12,111,·,110,99
CCc1cc(=O)oc2c(C)c3c(cc12)CN(CCc1ccccc1OC)CO3,111,-14,101,86
COc1ccc(N(CC(=O)N2CC3CC(C2)c2cccc(=O)n2C3)S(=O)(=O)c2c(C)noc2C)cc1 (stereo not given),104,-2,·,·
COc1ccccc1C(=O)NC1(C(F)(F)F)C(=O)NC(C)=C1C#N (stereo not given),99,-8,79,87
COc1ccccc1CNC(=O)CCC1N=C2c3ccccc3N=C(SCc3ccccc3Cl)N2C1=O (stereo not given),104,·,108,99
COc1ccc(C)cc1NC(=O)CN1C(=O)COc2ccc(S(=O)(=O)N3CCCCCC3)cc21,101,·,121,91
CCOC(=O)c1c[nH]c2c(OC)cc(OC)cc2c1=O,99,2,·,·
COc1ccc(CNC(=O)CCCN2CCSc3ccccc32)c(OC)c1,110,0,·,·
COc1cccc(-n2c(=O)c3sc4ccccc4c3n(CC(=O)NC3CCCCC3)c2=O)c1,100,10,104,98
